# LASV entry inh = qHTS for Inhibitors of binding or entry into cells for Lassa Virus; Lassa virus pseudotype entry inhibition, cell reporter; control for the full effect not named in the record; Potency, µM (top dose mostly 37.9 µM), inactives show at the highest dose activity change, negative = inhibition, hits mostly inhibitors; actives 1.2% (n = 300,000); active means well fitted inhibition curve with a large enough effect; inconclusive means small, poorly fitted or top-dose-only effect, or effect the other way; inactive means flat fitted curve, though single readings scatter; tested in HEK293 cells; further: on the % scale 0 is the no-effect control and ±100 the full control effect; nearly all actives have a fitted effect of over 50% in size; luciferase read-out
# Cruzain inh noDet = qHTS Assay for Promiscuous and Specific Inhibitors of Cruzain (without detergent). Cruzipain (Trypanosoma cruzi), P25779. purified cruzain, Z-FR-AMC fluorescence, no detergent. Potency, µM, for inactives: max response, negative = inhibition, most hits filed as inhibitors. actives 2.3% (n = 200,000). AID 1476, 2009;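 further: plate controls were enzyme without inhibitor for no effect and buffer without enzyme for full effect; nearly all actives have a fitted effect of over 40% in size; top concentration of the series not given in the record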
# Target sequence (P25779 123-467 limits assumed): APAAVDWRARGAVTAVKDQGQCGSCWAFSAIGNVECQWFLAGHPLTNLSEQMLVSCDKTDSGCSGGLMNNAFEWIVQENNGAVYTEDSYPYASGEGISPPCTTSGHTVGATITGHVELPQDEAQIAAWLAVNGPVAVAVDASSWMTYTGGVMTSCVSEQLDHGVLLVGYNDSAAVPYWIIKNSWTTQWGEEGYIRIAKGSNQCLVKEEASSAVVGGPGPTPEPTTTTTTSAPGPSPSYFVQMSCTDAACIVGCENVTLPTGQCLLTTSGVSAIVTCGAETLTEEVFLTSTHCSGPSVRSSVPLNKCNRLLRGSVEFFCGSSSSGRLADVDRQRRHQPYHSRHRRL
#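 Detergent-free condition (0.00005% Triton X-100) in acetate buffer pH 5.5 with DTT. 1.5 nM enzyme and compound were pre-mixed 15 min, then 2 uM Z-FR-AMC substrate added; reaction progress from fluorescence change between first and third reads (60 s).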
# MARV entry inh = qHTS for inhibitors of binding or entry into cells for Marburg Virus. actives 1.8% (n = 300,000). AID 540276, 2011. Potency, µM (doses to about 37.8 µM), for inactives: top-dose activity change, negative = inhibition, most hits filed as inhibitors. Marburg virus pseudotyped entry inhibition, cell reporter; control for the full effect not named in the record; about a third of the inactives were read at about 46 µM; active = well fitted inhibition curve with a large enough effect; inconclusive = small, poorly fitted or top-dose-only effect, or effect the other way; inactive = flat fitted curve, though single readings scatter; tested in HEK293 cells; about a fifth of its hits are not listed in these tables; further: on the % scale 0 is the no-effect control and ±100 the full control effect; luciferase read-out
# RE007 growth inh = qHTS Assay for Inhibitors of the HIV-1 protein Vpr. S. pombe RE007 Vpr strain, BacTiter-Glo ATP luminescence, 24 h; control for the full effect not named in the record. Potency, µM (highest dose often 92.2 µM), for the others: at the highest dose activity change, negative = less growth. actives 0.21% (n = 360,000). AID 651644, 2012; active = well fitted falling curve with a large enough effect; inconclusive = small, poorly fitted or top-dose-only effect; inactive = no such curve, though single readings can be large or run the other way;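 further: on the % scale 0 is the no-effect control and ±100 the full control effect; nearly all actives have a fitted effect of over 50% in size; the assay follows cell death caused by Vpr and the record does not say whether a fall means rescue or toxicity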
#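 Fission yeast strain RE007, carrying one chromosomally integrated HIV-1 vpr copy, was seeded at OD 0.01 in PMG+AL medium with 23 nL pinned compound. After 24 h at 30 °C and 99% humidity, viability was read by BacTiter-Glo luminescence.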
# SARS PLpro yeast = qHTS of Yeast-based Assay for SARS-CoV PLP. S. cerevisiae expressing SARS-CoV PLpro, growth rescue; control for the full effect not named in the record. actives 0.19% (n = 330,000). AID 485353, 2010. Potency, µM (highest dose often 32.9 µM), for inactives: at the highest dose activity, positive = growth rescue; active means well fitted rising curve with a large enough effect; inconclusive means small, poorly fitted or top-dose-only effect; inactive means no such curve, though single readings can be large or run the other way; further: 0% is about no effect; nearly all actives have a fitted effect of over 55% in size; growth read by luminescence after 48 h
# 2A StopGo = High Throughput Screening for Foot and Mouth Disease Virus Antivirals; human cells with a luciferase reporter of 2A StopGo recoding; control for the full effect not named in the record; Potency, µM (highest dose often 57.9 µM), for the others: top-dose signal change, negative = less light; actives 1.2% (n = 410,000); AID 1159524, 2015; active = well fitted falling curve with a large enough effect; inconclusive = small, poorly fitted or top-dose-only effect; inactive = no such curve, though single readings can be large or run the other way; tested in HEK293T cells; further: on the % scale 0 is the no-effect control and ±100 the full control effect; nearly all actives have a fitted effect of over 45% in size; luciferase light after 4 h
# Cruzain Triton = qHTS Assay for Promiscuous and Specific Inhibitors of Cruzain (with detergent) | Cruzipain (Trypanosoma cruzi), P25779 | purified cruzain, Z-FR-AMC fluorescence, 0.01% Triton | Potency, µM, for the others: max response, negative = inhibition, actives largely listed as inhibitors | actives 0.43% (n = 200,000) | AID 1478, 2009;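 further: plate controls were neutral wells for no effect and buffer without enzyme for full effect; nearly all actives have a fitted effect of over 40% in size; top concentration of the series not given in the record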
#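 Sodium acetate buffer (100 mM, pH 5.5) containing 5 mM DTT and 0.01% Triton X-100 hosted 1.5 nM cruzain and test compound for 15 min at room temperature. Cleavage of 2 uM Z-FR-AMC was then tracked by fluorescence.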
# NS1 function inh = qHTS Assay for Inhibitors of Influenza NS1 Protein Function | actives 0.4% (n = 270,000) | Potency, µM (titrated, usually from 46.1 µM), for inactives: at the highest dose activity, positive = more growth | S. cerevisiae slowed by influenza A NS1, growth recovery by OD600; active means well fitted rising curve with a large enough effect; inconclusive means small, poorly fitted or top-dose-only effect; inactive means no such curve, though single readings can be large or run the other way; further: nearly all actives have a fitted effect of over 50% in size
#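 In this qHTS, NS1 from influenza A is expressed in budding yeast, where it slows growth. Cells are switched from glucose to 2% galactose medium (pH 6.0, -URA), treated with compound, and growth recovery is read at OD600.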
# Numbers without * were called inactive; ? = inconclusive; / = not tested or not shown; [ ] = dose if it differs, or a comment. Unless noted, the call rests on the fitted dose curve; in most records, active means well fitted curve in the direction sought with a large enough effect; inconclusive means small, poorly fitted or top-dose-only effect, or another doubt; inactive means no such curve, though single readings can be large; an effect the other way counts as inactive or inconclusive. Potency means the concentration at half of the fitted maximal effect.
no.	compound	2A StopGo	SARS PLpro yeast	NS1 function inh	Cruzain Triton	Cruzain inh noDet	LASV entry inh	RE007 growth inh	MARV entry inh
1	CCSc1nnc(NC(=O)C2CCCN(S(=O)(=O)c3cnc[nH]3)C2)s1 (stereo not given)	-5.3%	10.5%	13.7%	-2.5%	-7.3%	/	5.1%	/
2	Cc1ccc(COc2ccc(CNCCCN3CCCCCC3=O)cc2)cc1	14.9%	1.9%	-8.3%	/	/	?	-6.9%	?
3	Cc1ccc(NS(=O)(=O)c2ccc(F)cc2)nc1	47.5%[activator]	-9.7%	-12.0%	/	/	/	-14.9%	/
4	N#Cc1ccccc1OCC(=O)NC(=O)NCc1ccco1	62.0%[activator]	-0.3%	3.1%	/	/	/	-3.5%	/
5	O=C(Cn1cc(SCc2cccc(F)c2)c2ccccc21)N1CCOCC1	14.9%	/	/	-9.8%	?	11.9%[46.1 µM]	/	/
6	CCCc1ccc(OCc2ccc(C(=O)Nc3cccc(C)n3)o2)c(OC)c1	?	-0.5%	2.7%	/	/	/	-1.8%	/
7	Cc1ccccc1OCCN1C(=O)NC2(CCCc3ccccc32)C1=O (stereo not given)	?	5.3%	-2.9%	-4.5%	-5.2%	4.3%	0.3%	-10.4%
8	Nc1ccc(S(N)(=O)=O)cc1N	9.1%	2.6%	4.47µM*	/	/	1.5%[46.1 µM]	-2.1%	?
9	O=C1CC[C@@H](CN(Cc2ccccc2)Cc2cn[nH]c2-c2cc3ccccc3o2)N1	-5.8%	-1.2%	-30.4%	/	/	?	4.5%	?
10	O=C(NCCCN1CCN(c2cccc(Cl)c2)CC1)c1ccc2nc(Cc3ccccc3)oc2c1	?	/	/	-8.6%	2.5%	?	/	/
11	COCCSc1ccccc1C(=O)NCC1CCCO1 (stereo not given)	/	/	-4.5%	-1.5%	-0.2%	-3.7%	-15.7%	?
12	COc1ccccc1NC(=O)C(C)OC(=O)CCCN=C1NS(=O)(=O)c2ccccc21 (stereo not given)	15.5%	8.1%	/	/	/	8.3%	7.9%	2.9%
13	COCCCNC(=S)NNC(=O)c1ccc(S(=O)(=O)N2CCC(C)CC2)cc1	-3.9%	0.0%	6.1%	/	/	12.0%	2.0%	-0.7%[46.1 µM]
14	COc1ccc(NC(=O)COc2nc(N(C)C)nc(N(C)C)n2)cc1	22.4%	1.8%	-0.6%	2.7%	8.0%	3.0%	5.8%	?
15	C=CCOn1c(=O)c(-c2ccc(C)cc2)[n+]([O-])c2ccccc21	3.9%	0.1%	5.3%	/	/	-45.6%	-14.7%	-5.4%
16	O=C(c1cc(F)cc(F)c1)N1CCC(c2nc(-c3ccc(S(=O)(=O)N4CCCC4)cc3)no2)CC1	0.0%	/	/	2.4%	2.0%	6.2%[46.1 µM]	/	17.5%[46.1 µM]

# Screen by screen, quoted from above.
# Entries 10–16 in Cruzain inh noDet read 2.5%, -0.2%, /, /, 8.0%, /, 2.0%

# More records follow.
no.	compound	2A StopGo	SARS PLpro yeast	NS1 function inh	Cruzain Triton	Cruzain inh noDet	LASV entry inh	RE007 growth inh	MARV entry inh
17	COc1cc(C(C)=O)ccc1OCC(=O)Nc1cc(Cl)ccc1-n1cncn1	0.0%	6.6%	/	/	/	1.4%	7.9%	?
18	CN(C)C=NC(=O)/C(C#N)=C1\CCc2ccccc2N1	15.3%	-4.2%	-7.3%	0.6%	-3.0%	4.6%	19.7%	?
19	Cc1c(C(=O)N/N=C/c2cccc(O)c2)nnn1-c1nonc1N	-1.4%	-4.5%	16.0%	/	/	/	-6.7%	/
20	Cc1ccccc1Nc1c(-c2cccc(Cl)c2)nc2ncccn12	-22.9%	/	/	-2.4%	-3.1%	-9.4%[46.1 µM]	/	2.7%[46.1 µM]
21	COc1ccc(NC(=O)CCSc2nc(C)cs2)cc1	64.8%[activator]	1.9%	6.9%	/	/	?	5.8%	5.7%
22	O=C(NC1CCS(=O)(=O)C1)c1cccc(Br)c1 (stereo not given)	-15.0%	-2.8%	/	/	/	22.1%	-0.8%	4.5%
23	COc1ccc(NC(=O)c2ccc3ncsc3c2)cc1	-10.9%	0.2%	-5.6%	/	/	29.2%[46.1 µM]	-3.0%	-20.9%[46.1 µM]
24	Cc1cc(OCC(=O)NNC(=O)c2cnccn2)cc(C)c1Cl	5.0%	15.6%	-22.9%	/	/	/	-6.5%	/
25	CCOc1ccc2[nH]c(=O)c(CN(CCCO)S(=O)(=O)c3ccc(F)cc3)cc2c1	?	2.2%	-3.2%	/	/	-23.0%	1.4%	?
26	CCc1cccc(C)c1NC(=O)CN1C(=O)NC(C)(CCC(C)C)C1=O (stereo not given)	-6.4%	-0.3%	/	/	/	8.8%[46.1 µM]	7.8%	0.5%[46.1 µM]
27	COc1ccc([C@H]2[C@H](C(C)=O)N3N=Cc4ccccc4C3C23C(=O)OC(C)(C)OC3=O)cc1 (stereo not given in full)	23.8%	1.5%	?	3.2%	-6.8%	11.4%	11.6%	1.7%
28	CC(=O)c1nn(-c2cccc(Br)c2)cc1C(=O)c1cccc2ccccc12	-27.1%	0.3%	11.1%	-0.4%	?	6.0%	-0.2%	-17.3%
29	Cc1cccc(NC(=O)C2c3ccccc3Oc3ccccc32)n1	-10.6%	-4.7%	-48.7%	/	/	?	-5.0%	?
30	Cn1nc(C(F)(F)F)c(-c2cccc(C(F)(F)F)c2)c1NC(=O)c1nccnc1C(=O)O	-2.7%	1.1%	0.7%	/	/	13.6%[46.1 µM]	-6.2%	11.3%[46.1 µM]
31	O=C(O)CC1(CC(=O)Nc2ccc(F)cc2F)CCCCC1	-0.8%	-0.9%	-3.8%	/	/	/	-1.3%	/
32	CCN(CC)C(=O)COc1ccc2oc(C)c(C(=O)OC(C)C)c2c1	-29.7%	1.2%	-43.1%	-0.2%	13.0%	5.6%	-10.8%	2.0%
33	COc1cccc(/C=C/C(=O)OCC(=O)NC2CCCCCCC2)c1	-12.2%	-32.2%	/	/	/	?	3.6%	-19.4%
34	CCCNC(=O)c1nc(C)n(-c2cc(Cl)ccc2Cl)n1	0.4%	1.5%	/	/	/	8.5%	-6.6%	19.3%[46.1 µM]
35	Cc1ccc2nc(Nc3nc(CSc4nnnn4-c4ccccc4)cc(=O)[nH]3)nc(C)c2c1	-8.8%	?	2.3%	3.8%	23.7%	-1.6%	10.3%[3.69 µM]	0.1%
36	CCC(C(=O)Nc1ccccc1C(=O)N1CCCC1)N1C(=O)c2ccccc2C1=O (stereo not given)	-13.7%	2.3%	2.8%	-0.5%	-13.5%	20.1%	-0.3%	-4.7%
37	CCOC(=O)c1cc2c(=O)n3ccccc3nc2n(C)c1=NC(=O)c1c(-c2ccccc2Cl)noc1C	-7.8%	/	/	1.0%	7.5%	1.1%[46.1 µM]	/	?
38	O=C(O)C1C2C=CC(C2)C1C(=O)NCc1ccc(Cl)c(Cl)c1 (stereo not given)	0.0%	-10.0%	-20.0%	-1.7%	-9.1%	5.5%	-14.5%	-4.2%
39	C/C(=N\NC(=O)Cn1cc([N+](=O)[O-])cn1)c1ccco1	-11.8%	0.5%	1.3%	/	/	/	5.9%	-5.8%
40	O=C(Nc1ccc(N2CCOCC2)c(Cl)c1)c1ccc(F)cc1	-6.1%	-25.2%	4.1%	-5.6%	12.9%	-0.7%	0.0%	?

# 3 compounds from above, showing only 2A StopGo, NS1 function inh and LASV entry inh.
cpd	structure	2A StopGo	NS1 function inh	LASV entry inh
40	O=C(Nc1ccc(N2CCOCC2)c(Cl)c1)c1ccc(F)cc1	-6.1%	4.1%	-0.7%
6	CCCc1ccc(OCc2ccc(C(=O)Nc3cccc(C)n3)o2)c(OC)c1	?	2.7%	/
5	O=C(Cn1cc(SCc2cccc(F)c2)c2ccccc21)N1CCOCC1	14.9%	/	11.9%[46.1 µM]

# Additional compounds.
no.	compound	2A StopGo	SARS PLpro yeast	NS1 function inh	Cruzain Triton	Cruzain inh noDet	LASV entry inh	RE007 growth inh	MARV entry inh
41	COc1ccc(NC(=O)CCCN2C(=O)CCn3nc(-c4cn(C)c5ccccc45)cc32)cc1OC	-19.7%	/	/	-6.0%	?	1.1%[46.1 µM]	/	/
42	O=C1CN(C(=O)COC(=O)CCC(=O)c2ccc3c(c2)OCCO3)c2ccccc2N1	23.6%	1.6%	-13.4%	2.2%	-4.4%	18.2%	-5.5%	-4.4%
43	CCC1CCCCN1C(=O)c1ccc2c(c1)C(=O)N(c1ccc(C)cc1)C2=O (stereo not given)	-5.8%	-3.2%	-4.4%	/	/	?	1.4%	1.6%[46.1 µM]
44	O=C(NCC(=O)N(c1ccccc1)C(C(=O)NC1CCCCC1)c1cccnc1)c1ccco1 (stereo not given)	2.2%	3.7%	6.7%	/	/	23.1%	-3.2%	20.0%[46.1 µM]
45	CCOc1ccc2nc(N3CCCC(C(=O)Nc4ccccc4CC)C3)sc2c1 (stereo not given)	33.3%[activator]	/	/	-0.7%	0.0%	/	/	2.8%[46.1 µM]
46	Cc1cc(CN(C)Cc2ccc(OCC(O)CN(C)Cc3ccccc3)cc2)on1 (stereo not given)	-18.7%	21.0%	-4.2%	/	/	-1.6%[46.1 µM]	-4.3%	?
47	CC1CCc2sc(-c3n[nH]c(=S)o3)cc2C1 (stereo not given)	7.8%	-13.3%	-4.5%	/	/	/	?	/
48	CC(C(=O)NCc1ccc(F)cc1)n1ccc2cc(S(=O)(=O)N3CCCC3)ccc21 (stereo not given)	-20.2%	-7.6%	7.6%	/	/	?	0.0%	?
49	CCCN(C(=O)Cc1coc2cc(C)c(C)cc12)c1c(N)n(Cc2ccccc2)c(=O)[nH]c1=O	-22.2%	-0.1%	/	/	/	3.3%	-15.5%	-22.2%
50	Cc1ccccc1Cn1cc(S(=O)(=O)CC(=O)Nc2nccs2)c2ccccc21	/	-3.2%	-11.6%	-6.7%	15.8µM*	-28.1%	2.3%	?

# Screens from PubChem BioAssay.
